# Screening results as filed in PubChem.
# ClpP mod = qHTS Assay for Activators of ClpP; Potency, µM (highest dose often 57.5 µM), inactives show at the highest dose activity change, negative = active; purified B. subtilis ClpP, FRET peptide cleavage, 20 min; AID 651965, 2013; 1.9% of 340,000 active; active = well fitted falling curve with a large enough effect; inconclusive = small, poorly fitted or top-dose-only effect; inactive = no such curve, though single readings can be large or run the other way; also: the source files actives as falling curves though it sought activators and does not explain the sign; nearly all actives have a fitted effect of over 65% in size; many hits overshoot -100%
# Target sequence (P80244 whole entry, looked up): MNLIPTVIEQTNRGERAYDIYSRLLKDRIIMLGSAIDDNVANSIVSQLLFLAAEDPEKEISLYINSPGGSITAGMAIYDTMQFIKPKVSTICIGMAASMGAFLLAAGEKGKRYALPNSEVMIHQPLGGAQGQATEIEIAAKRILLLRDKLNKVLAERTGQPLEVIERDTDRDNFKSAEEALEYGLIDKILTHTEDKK
#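 Purified B. subtilis ClpP, 10 microg/mL final in Tris/HCl pH8 with KCl, BSA, glycerol and Tween-20, cleaved an Abz/nitrotyrosine-quenched decapeptide. Fluorescence (ex 320, em 430) was read at 0 and 20 min at room temperature. Delta was normalized to 5.8 microM ADEP and DMSO/no-enzyme controls.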
# * hit, by the source's call; ? = inconclusive. Potency is read from the fitted curve at half-maximal effect.
SMILES,ClpP mod
O=C1CCSC2(C(=O)N(Cc3ccccc3)c3ccccc32)N1c1ccccc1 (centres undefined),-2.0%
O=C(Nc1cccc(Cl)c1Cl)c1ccc2c(c1)N(Cc1cccc(Cl)c1)C(=O)c1ccccc1S2=O (centres undefined),1.4%
CCOc1ccc(CCNC(=O)CN2CCN(Cc3ccc(F)cc3Cl)C2=O)cc1OCC,0.3%
Cc1ccc(C(=O)N2CCn3c4c(c5cc(C)ccc53)CCCC42)cc1 (centres undefined),?
CC1(c2ccccc2)CC(C)(C)N(C(=O)c2cccc(Cl)c2)c2ccccc21 (centres undefined),-0.1%
COc1ccc(Cl)cc1NC(=O)Cn1ccn(-c2cc(C)cc(C)c2)c(=O)c1=O,-0.3%
COc1cccc(CCNC(=O)c2cnc3sc(N4CCCCCC4)nn3c2=O)c1,?
CC(C)(C)c1ccc(C(=O)Nc2ccccc2C(=O)OCc2cc(=O)n3ccsc3n2)cc1,-7.0%
O=C(Cn1cc(S(=O)(=O)Cc2cccc(Cl)c2)c2ccccc21)Nc1ccccc1C(F)(F)F,-24%
CC1CCC2(CC1)N=C(c1ccccc1)C(=O)N2CC(=O)Nc1ccc(F)c(Cl)c1 (centres undefined),-3.9%
CCN(CC)CCNC(=O)c1cc2c(=O)n(C)c3cc(Cl)ccc3c2s1,3.5%
COc1ccc(C(=O)Nc2ccccc2-c2nc3ccccc3s2)cc1OC,-21%
Cc1nc2nc(NC(=O)c3ccc(F)cc3)[nH]n2c(=O)c1Cc1ccccc1,0.2%
Cc1cc(NC(=O)c2ccco2)cc(-c2nc3ccccc3o2)c1O,0.8%
CCOC(=O)c1c(-c2ccc(C)cc2)csc1NC(=O)c1cc(=O)c2cc(C)ccc2o1,-0.9%
COc1cccc(NC(=O)/C(C#N)=C\c2cn(Cc3ccc(C)cc3)c3ccccc23)c1,1.2%
Cc1ccc(NC(=O)C2CCN(S(=O)(=O)c3ccc4[nH]c5c(c4c3)CCCCC5)CC2)cc1,-14%
CCOc1ccc(-n2ccnc2SCC(=O)Nc2ccc3c(c2)OCO3)cc1,0.1%
Cc1ccc(C2C(=O)N(C3CCCCCC3)CC(=O)N2C(C)C)cc1 (centres undefined),1.7%
Cc1cccc(C)c1NC(=O)C(c1ccccc1)n1c(=O)c(-c2ccco2)nc2ccccc21 (centres undefined),4.1%
CCc1ccc(OCC(=O)Nc2ncn[nH]2)c(Br)c1,0.2%
Cc1ccc(N2C(=O)c3[nH]nc(-c4ccc(Cl)cc4)c3C2c2ccc(F)cc2)cc1 (centres undefined),-2.4%
COc1ccccc1CNC(=O)c1ccc2nc(CCc3ccccc3)oc2c1,?
CC[N+](CC)=N/N=C1\C=CC[N+]([O-])=C1,0.0%
COc1ccc(NC(=O)c2ccc3c(c2)CCN3S(=O)(=O)c2ccc(C)cc2)cc1Cl,-28%
COc1cccc(CNS(=O)(=O)c2ccc3[nH]c4c(c3c2)CCCCC4)c1,-10%
C[N+]1(CC(=O)c2c3ccccc3cc3ccccc23)CCOCC1,-2.3%
CCOc1ccc(CCNC(=O)c2c(C)oc3ncnc(N4CCOCC4)c23)cc1,0.4%
COc1ccc(OCCn2c(C)nc3cc(C)c(C)cc32)cc1,-1.1%
CCCCCCCCN1C(=O)[C@H](CC(=O)NCCCCc2ccccc2)C[C@@]2(C(=O)OC)CCCCC=C12,0.6%
Cc1ccc(-c2nc(Cn3c(SCc4ccc(F)cc4)nc4cccnc43)c(C)o2)cc1,?
CCC1=Nc2cc(C(=O)NCCN(CC)CC)ccc2Sc2ccccc21,0.5%
O=C(Nc1cccc(Cl)c1)c1cnc2sc(N3CCCC3)nn2c1=O,-2.9%
CCc1ccc(-n2nc3cc(C)c(NC(=O)c4ccccc4C)cc3n2)cc1,-2.6%
CCN(C(=O)CSc1nc2ccccc2n1Cc1cc(C)ccc1C)c1ccccc1,0.1%
O=C(Nc1c(C(=O)c2ccc(Cl)cc2)oc2ccccc12)c1cc(=O)c2ccccc2o1,2.8%
O=C1NC[C@H](CCCCN2C[C@H](Cc3ccc(O)cc3)N(Cc3ccccc3)C(=O)C2=O)N(CCc2ccccc2)C1=O,1.3%
Clc1cccc(CSc2ccc(-c3cccs3)nn2)c1,-2.7%
CC(=O)/C=C/c1ccc2c(c1)S(=O)(=O)N(C1CCCC1)[C@H]2CC(C)=O,-2.4%
COc1ccc(NC(=O)c2c(-c3ccccc3)c(-c3ccccc3)nn(C)c2=O)cc1OC,0.8%
Cc1ccc2c(c1)cc1c(=O)n(CC(=O)NC(C)CCc3ccccc3)nc(C)n12 (centres undefined),?
O=C1NC[C@H](CCCCN2C[C@H](Cc3ccc(O)cc3)N(CCC3CCCCC3)C(=O)C2=O)N(CC2CCCCC2)C1=O,1.8%
O=C(NCc1ccccc1)c1ccc2oc(=O)n(Cc3ccccc3)c2c1,-0.9%
CC(=O)CC1c2ccccc2C=C(c2ccsc2)N1c1ccc(-c2cccs2)cc1 (centres undefined),-5.2%
CCc1cccc(NC(=O)CN(C)S(=O)(=O)c2ccc3c(c2)n(C)c(=O)c(=O)n3C)c1,-10%
Fc1ccccc1N1CCN(c2ncnc3c2nc2n3CCCC2)CC1,1.0%
COc1cccc2c1ncc1c(-c3ccc(C)cc3)nn(-c3cccc([N+](=O)[O-])c3)c12,-0.4%
CCOC(=O)[C@]12CCCC=C1N(Cc1ccc(Cl)cc1Cl)C(=O)[C@H](CC(=O)NCCCN1CCCC1=O)C2,1.1%
COc1cccc(-n2cc(C(=O)NCc3ccc(C)cc3)c3ccccc3c2=O)c1,-18%
CCc1ccc(S(=O)(=O)n2ccnc2)cc1,-0.3%
Cc1ccccc1OCc1ccc(-c2nc(C#N)c(N3CCN(C)CC3)o2)o1,4.3%
CCc1ccc(NC(=O)CN2C(C(=O)OC)=C(c3ccccc3)c3ccccc3S2(=O)=O)cc1,-1.4%
CCOc1ccc(CN2C(=O)c3ccccc3Sc3ccc(C(=O)NCc4ccco4)cc32)cc1,-1.8%
FC(F)(F)c1cc(Cl)c2nc(-c3ccco3)c(Cc3ccccc3C(F)(F)F)n2c1,1.1%
COc1cc2c(cc1OC)C(COc1ccc3c(C)cc(=O)oc3c1)N(C(=O)c1cccc(C)c1)CC2 (centres undefined),12%
O=S1(=O)CC(N2CCN(Cc3ccccc3F)CC2)CN1Cc1cn(Cc2ccccc2)nn1 (centres undefined),0.9%
Cc1ccc2nc(-c3ccc(C)c(NC(=O)CSc4ccc(Cl)cc4)c3)oc2c1,-13%
Cc1nnc(SCc2cc(=O)n3c(C)cccc3n2)s1,-3.1%
COc1cccc(CNC(=O)c2ccc3c(c2)nc2n3CCOC2)c1,-2.1%
COc1ccc(-c2cn3nc(N4CCCC(C(=O)NCc5ccccc5OC)C4)sc3n2)cc1 (centres undefined),0.6%

# Other compounds
SMILES,ClpP mod
CCOc1ccc(CNC(=O)CCC(=O)N2CC(C)Sc3ccccc32)cc1 (centres undefined),-0.9%
CCc1ccccc1N(C)C(=O)c1sc2nc3n(c(=O)c2c1C)CCCCC3,1.4%
O=S(=O)(c1ccccc1)c1nc(-c2cccs2)oc1SCc1ccccc1Cl,-5.9%
COCc1cc(C)nc2c1C(=O)NC(c1ccc(F)cc1)N2Cc1ccccc1 (centres undefined),5.1%
O=C(Nc1ccccc1F)c1nc(SCc2ccccc2F)ncc1Cl,-4.7%
COc1cccc2cc(C(=O)NCCc3c(C)[nH]c4ccc(Br)cc34)c(=O)oc12,-1.0%
CCSC1=NC2(CCN(C(=O)NC3CCCCC3)CC2)N=C1c1ccc(C)cc1,0.0%
C#CCN(Cc1ccc(OC)cc1)S(=O)(=O)C=C,-0.2%
COc1cccc2c1cc1c(=O)n(CC(=O)N3CCN(c4cccc(C)c4)C(C)C3)nc(C)n12 (centres undefined),?
CC(C)c1noc(-c2ccccc2OCC(=O)Nc2ccccc2[N+](=O)[O-])n1,0.7%
CCc1noc(-c2ccc(N(C)Cc3ccc(OC)cc3)c([N+](=O)[O-])c2)n1,-8.7%
COc1cc(N(C)C)c(OC)cc1/C=C1\C=Cc2ccccc21,-1.8%
Cc1ccc(-c2nnc(SCc3ccccc3)o2)cc1,-3.5%
COc1nc(-c2ccc(C)cc2)ccc1-c1noc(-c2ccccc2Br)n1,20%
COc1ccc(-c2noc(CSc3nc(N)cc(=O)[nH]3)n2)cc1OC,-3.1%
CCOC(=O)c1sc(NC(=O)c2nc3ncccn3n2)c(C(=O)OC)c1C,3.9%
CCCc1c(-c2ccccc2F)ncn1Cc1ccccc1OC,-1.0%
CCCN1C(=O)C(Cc2nc3ccccc3c(=O)n2-c2ccc(OC)cc2)c2cc(C)ccc21 (centres undefined),-2.9%
COc1cccc(NC(=O)Nc2ccc3c(c2)N(C)C(=O)c2ccccc2S3)c1,2.6%
CCOC(=O)c1ccc(NC(=O)c2c(NCc3sccc3C)sc3c2CCC(C)C3)cc1 (centres undefined),0.0%
Cc1ccc(CNC(=O)CCCc2nnc3n(C)c(=O)c4sccc4n23)cc1,-6.2%
COc1ccccc1CNC(=O)C1CCCN(S(=O)(=O)c2ccc3c(c2)CCCN3C(C)=O)C1 (centres undefined),-6.7%
CCn1cc(C(=O)NCCc2ccc(OC)c(OC)c2)c(=O)c2cc(S(=O)(=O)N3CCC(C)CC3)ccc21,-14%
O=C(Nc1c2c(nn1-c1ccc(Cl)cc1)CS(=O)(=O)C2)c1ccccc1F,1.9%
Cc1cccc(C)c1NC(=O)C1(C)CSCC(=O)N1Cc1cccs1 (centres undefined),0.1%
COc1ccc2c(c1)c1c(c(=O)n(-c3cc(Cl)ccc3C)c(=O)n1CC(=O)N1CCCC1)n2C,4.0%
CC(C)COc1ccc(C(=O)Nc2cc3nn(-c4ccccc4)nc3cc2Cl)cc1,-14%
CCOc1cc(CNC(=O)c2ccc(C)c(NC(=O)c3nsc4ccccc34)c2)ccc1OC,63%
O=C(Nc1ccc2c(c1)CCCN2C(=O)c1cccs1)c1ccccc1C(F)(F)F,0.5%
CC(=O)c1ccc(NC(=O)Cn2c(=O)cc(C)c3c(C)nn(-c4cccc(F)c4)c32)cc1,0.6%
CCc1ccc(NC(=O)C(=O)NCC(c2ccc3c(c2)OCO3)N2CCOCC2)cc1 (centres undefined),-1.3%
O=C(CCn1nc(-c2ccc(Cl)cc2)c2ccccc2c1=O)Nc1ccc(OC(F)(F)F)cc1,-3.7%
O=S1(=O)CC(N2CCSCC2)CN1Cc1cn(Cc2ccc(C(F)(F)F)cc2)nn1 (centres undefined),0.4%
Cc1cccc(NC(=O)Cc2ccc(-n3c(C)nc4cccnc43)cc2)c1C,1.5%
COc1ccc(-n2nc3cc(C)c(NC(=O)Cc4ccc(Cl)cc4)cc3n2)cc1,-4.2%
Cc1coc2c(C)c3oc(=O)c(CCC(=O)NCCc4ccc(Cl)cc4)c(C)c3cc12,-17%
CC1CCc2onc(C(=O)N3CCN(c4ccccc4)CC3)c2C1 (centres undefined),0.4%
Cc1cccc(C)c1NC(=O)CN(Cc1ccc(Br)cc1)S(=O)(=O)c1ccccc1,-12%
N=c1nc(-c2ccccc2)n(-c2ccccc2)s1,-3.7%
CN(Cc1ccccc1)C(=O)[C@@H]1CCCN1,-2.0%
CC(C)c1ccc(NC(=O)c2cc(S(=O)(=O)N(C)C3CCCCC3)ccc2F)cc1,0.0%
Cc1ccc(OCC(=O)Nc2ccc3nn(-c4ccc(Cl)cc4)nc3c2)cc1,-18%
O=C(CSCc1ccccc1Cl)NCc1ccc(Cl)c(Cl)c1,2.1%
CC(=O)Nc1ccc(NC(=O)CSc2nnc3c4cc(Br)ccc4n(C)c3n2)cc1,-1.4%
CN(C)CCNC(=O)c1ccc2nc(CCc3ccccc3)oc2c1,0.8%
CSCCC(C(=O)NC(C)(C)C)n1c(-c2ccc3c(c2)OCO3)nc2ccccc21 (centres undefined),4.3%
COc1ccc(-c2nc(C)c(CCNC(=O)c3ccco3)s2)cc1,4.5%
O=C(CSc1nccn1Cc1ccccc1)Nc1ccc2c(c1)OCCO2,5.6%
COc1ccc(-c2c(C)c3ccc(O)c(CN4CCCC4)c3oc2=O)cc1,3.8%
COC(=O)c1ccc(Cl)c(NC(=O)C2CCN(S(=O)(=O)Cc3ccccc3)CC2)c1,-1.4%
CCc1ccc(OCCCCn2c(CCNC(=O)C3CCCCC3)nc3ccccc32)cc1,-1.0%
COc1cc(C(=O)NCc2nc(-c3ccc(Cl)cc3)no2)cc(OC)c1OC,0.3%

# Shown as tab-separated lines: entries from further up.
canonical_smiles	ClpP mod
CC1CCc2onc(C(=O)N3CCN(c4ccccc4)CC3)c2C1 (centres undefined)	0.4%
Cc1cccc(C)c1NC(=O)CN(Cc1ccc(Br)cc1)S(=O)(=O)c1ccccc1	-12%
N=c1nc(-c2ccccc2)n(-c2ccccc2)s1	-3.7%
CN(Cc1ccccc1)C(=O)[C@@H]1CCCN1	-2.0%
CC(C)c1ccc(NC(=O)c2cc(S(=O)(=O)N(C)C3CCCCC3)ccc2F)cc1	0.0%
Cc1ccc(OCC(=O)Nc2ccc3nn(-c4ccc(Cl)cc4)nc3c2)cc1	-18%
O=C(CSCc1ccccc1Cl)NCc1ccc(Cl)c(Cl)c1	2.1%
CC(=O)Nc1ccc(NC(=O)CSc2nnc3c4cc(Br)ccc4n(C)c3n2)cc1	-1.4%
CN(C)CCNC(=O)c1ccc2nc(CCc3ccccc3)oc2c1	0.8%
CSCCC(C(=O)NC(C)(C)C)n1c(-c2ccc3c(c2)OCO3)nc2ccccc21 (centres undefined)	4.3%
COc1ccc(-c2nc(C)c(CCNC(=O)c3ccco3)s2)cc1	4.5%
O=C(CSc1nccn1Cc1ccccc1)Nc1ccc2c(c1)OCCO2	5.6%
COc1ccc(-c2c(C)c3ccc(O)c(CN4CCCC4)c3oc2=O)cc1	3.8%
COC(=O)c1ccc(Cl)c(NC(=O)C2CCN(S(=O)(=O)Cc3ccccc3)CC2)c1	-1.4%

# A portion of the library; the hit share may differ from the screen's.
